Compound activity (PubChem)
VDR inh = inhibitors of human vitamin D receptor | P11473 | VDR-SRC2-3 peptide fluorescence polarization, 2 h | Potency, µM, for the others: max response, negative = inhibition, most hits filed as inhibitors | hit rate 0.93% among 400,000 | AID 504847; active means well fitted inhibition curve with a large enough effect; inconclusive means small, poorly fitted or top-dose-only effect, or another doubt; inactive means no such curve, though single readings can be large or run the other way; further: series mostly up to about 120 µM
Target sequence (P11473 whole entry, looked up): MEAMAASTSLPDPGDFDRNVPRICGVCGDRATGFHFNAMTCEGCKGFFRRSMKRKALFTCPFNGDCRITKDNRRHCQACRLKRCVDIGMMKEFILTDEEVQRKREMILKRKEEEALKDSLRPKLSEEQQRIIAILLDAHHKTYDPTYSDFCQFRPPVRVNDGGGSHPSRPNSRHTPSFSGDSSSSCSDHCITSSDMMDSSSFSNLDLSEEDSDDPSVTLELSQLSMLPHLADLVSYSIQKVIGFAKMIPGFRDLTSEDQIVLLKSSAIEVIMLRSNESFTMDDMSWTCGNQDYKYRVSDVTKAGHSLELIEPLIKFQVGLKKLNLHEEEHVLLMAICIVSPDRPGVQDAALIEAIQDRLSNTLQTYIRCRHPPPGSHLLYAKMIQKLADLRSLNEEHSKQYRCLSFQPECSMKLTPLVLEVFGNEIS
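Inhibition of the VDR/SRC2-3 peptide interaction is quantified by fluorescence polarization. Compounds (23 nl, pintool) incubate with the reagents for 2 hours at ambient room temperature.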
* = called active by the depositor; ? = inconclusive; & = joins results of further samples; [ ] = dose if it differs, or a comment. On the % scale 0 is the no-effect control and ±100 the full control effect; potency means the concentration at half of the fitted maximal effect.

VDR inh	smiles
18.2%	CCN(CC)CCNC(=S)Nc1ccc2nc(N3CCCC3)cc(C)c2c1
6.6%	CC(=O)c1cccc(NC(=O)CSc2ccc(-c3cccnc3)nn2)c1
-19.3%	Cn1c(=O)c2[nH]c(-c3ccccc3)c(O)c2n(C)c1=O
-14.3%	CC(C)C(=O)Nc1cccc(-c2nc3ccccc3o2)c1
-13.5%	CC1CCN(C(=O)COC(=O)c2cccc(S(=O)(=O)N(C)c3ccccc3)c2)CC1
-15.0%	CC(=O)C1=C(O)C(=O)N(c2ccc(O)cc2)C1c1ccc(Cl)cc1 (stereo not drawn)
-15.7%	Fc1cnc(N2CCN(c3ccccc3)CC2)nc1N1CCN(c2ccccc2)CC1
-2.7%	Cc1ccc(-c2cc(C(=O)NCc3cn(C)nc3C)c3cc(Br)ccc3n2)cc1
2.4%	Cc1ccc(C2=Nc3ccccc3NC(c3ccncc3)=N2)cc1
-10.1%	Cc1cc(N2CCC(C(=O)NC3CC3)CC2)nc(-c2ccccc2)n1
-6.6%	CCNc1nc(OC)nc(SCC(=O)Nc2ccccc2)n1
-1.7%	CCOc1ccc(C(=O)Nc2nnc(C(C)C)s2)cc1OCC
-6.9%	CC(=O)Oc1ccc2c(c1)CCC1C2CC[C@]2(C)C(OC(C)=O)CCC12 (stereo partly drawn)
0.8%	COc1ccc(C(=O)NC(=S)N2CCC(C)CC2)cc1
0.3%	COc1ccc(CN2COc3ccc4c(-c5ccccc5)cc(=O)oc4c3C2)cc1OC
-0.5%	COc1ccc(-c2nc3cnc(Oc4ccccc4)nc3n(Cc3cccs3)c2=O)cc1
0.0%	O=C(Nc1ccc(F)cc1F)c1noc2c1CCC2
-11.0%	COc1ccc2c(Cl)c(C(=O)N/N=C/c3cccnc3)sc2c1
1.0%	Cc1c(N(C)S(=O)(=O)c2cc(C(=O)N3CCCC3)ccc2Cl)c(=O)n(-c2ccccc2)n1C
6.3%	O=C(NCC(c1cccnc1)N1CCN(c2ccc(F)cc2)CC1)c1cccc(Cl)c1 (stereo not drawn)
-7.0%	COCCNC(=O)Cn1c(=O)oc2cc(S(=O)(=O)N3CC(C)CC(C)C3)ccc21 (stereo not drawn)
7.6%	CCOC(=O)N1CCN(C(=O)COc2cc(C)c(Cl)c(C)c2)CC1
1.1%	COCCn1c(=O)[nH]c2cc(C(=O)NCc3ccccc3)ccc2c1=O
-3.9%	COc1cc(C2NC(=O)NC(c3ccccc3)=C2C(C)=O)cc(Cl)c1OCC(=O)O (stereo not drawn)
0.8%	CCN1C(=O)[C@H]2[C@@H](c3ccc(-c4ccccc4)c(OC)c3)N[C@@](CC(C)C)(C(=O)OC)[C@H]2C1=O
-6.0%	N/C(=N\OC(=O)CCCc1ccccc1)c1cccc([N+](=O)[O-])c1
-5.0%	O/N=C1\CCCc2oc3c(c21)CCCC3
1.8%	CCN(CC)C(=O)CSc1nc(C)cc(-c2cccs2)c1C#N
10.2%	CCOc1ccc(NC(=O)C2CCCN(c3nnc(-n4c(C)ccc4C)s3)C2)cc1 (stereo not drawn)
?	CCOC(=O)N1CCN(Cc2c(O)ccc3ccccc23)CC1
8.6%	C/C(=N\NC(=O)CSCc1cccc(Br)c1)c1ccc([N+](=O)[O-])cc1
-17.3%	O=C(CC1SCCNC1=O)Nc1ccccc1Cl (stereo not drawn)
8.6%	Cc1nc(SCc2nc3ccc(F)cc3[nH]2)c2oc3ccccc3c2n1
-9.8%	Cc1nc(CS(=O)c2ccccc2)cc(N2CCOCC2)n1 (stereo not drawn)
-5.6%	CCOC(=O)c1ccc(NC(=O)N2CCN(c3ccccn3)CC2)cc1
6.4%	Cc1ccc(CNC(=O)C(=O)Nc2nccs2)cc1
8.4%	COC(=O)N/N=C/c1cn(CCOc2cccc(OC)c2)c2ccccc12
-9.1%	O=C(CCc1nc(-c2ccccc2)no1)NCc1cccnc1
2.0%	S=C(Nc1ccc(Br)cc1)N1CCN(C2CCCCC2)CC1
3.8%	N#CC(c1ccc(Cl)nn1)c1c(F)cccc1Cl (stereo not drawn)
-19.0%	c1ccc(Cc2nnc(Sc3ccccc3)c3ccccc23)cc1
11.0%	CCC(=O)N1CCN(c2ccccc2NC(=O)c2cccc(C)c2)CC1
7.9%	Cc1cccc(S(=O)(=O)c2cn(Cc3ccc(F)cc3)c3cc(N4CCCCC4)c(F)cc3c2=O)c1
10.5%	CCCOc1ccc(N2C(=O)CC(NCc3cccs3)C2=O)cc1 (stereo not drawn)
-5.1%	CC(=O)c1cccc(NC(=O)N2CCCc3ccccc32)c1
7.5%	CCOC(=O)C1CCN(C(=O)CN(c2ccc(Cl)c(C(F)(F)F)c2)S(C)(=O)=O)CC1
29.8%	N=C1S/C(=C\c2ccc(O)cc2)C(=O)N1c1ccc(F)cc1
9.5%	O=Cc1c(SCCO)nc2ccccn2c1=O

Reformatted as tab-separated lines: part of the list above
smiles	VDR inh
COc1ccc(-c2nc3cnc(Oc4ccccc4)nc3n(Cc3cccs3)c2=O)cc1	-0.5%
COCCn1c(=O)[nH]c2cc(C(=O)NCc3ccccc3)ccc2c1=O	1.1%
COCCNC(=O)Cn1c(=O)oc2cc(S(=O)(=O)N3CC(C)CC(C)C3)ccc21 (stereo not drawn)	-7.0%

Remaining list, next part:
VDR inh	smiles
-13.4%	CC(=O)Nc1ccc(CN2CCCC(CO)(Cc3cccc(Cl)c3)C2)cc1 (stereo not drawn)
1.1%	CCCOc1ccc(C(=O)NCC(c2ccco2)N(C)C)cc1OC (stereo not drawn)
12.4%	COC(=O)c1ccccc1Oc1c(F)c(F)nc(N2CCOCC2)c1F
-5.1%	Cc1ccc(NC(=O)C(C)Sc2nnc(C3CC3)n2C2CC2)cc1S(=O)(=O)N1CCOCC1 (stereo not drawn)
8.6%	CN(C)CCN(Cc1ccco1)C(=O)c1cc2c(Cl)nc3ccccc3c2s1
-12.4%	CC(=O)N1CCCc2cc(S(=O)(=O)N3CCC(C(=O)NCCC(C)C)CC3)ccc21
-1.7%	CCC(=O)N1c2ccccc2CC1C(=O)NCCCN1CCN(c2ccccc2)CC1 (stereo not drawn)
3.9%	CCC(=O)N1CCc2cc(Br)cc(S(=O)(=O)CCC(=O)NCCOC)c21
-7.0%	CC1=C(C(=O)OCc2ccccc2)C(c2cccs2)NC(=O)N1CCCC(=O)O (stereo not drawn)
-15.3%	C=C(C)CC(c1ccccc1)N(C(C)=O)c1ccco1 (stereo not drawn)
0.5%	COc1cccc(C(=O)N(CN2CCCC2=O)c2ccccc2OC)c1
-4.9%	COc1ccc(C2CC(c3cccs3)=NN2C(=O)CSC2=NCCS2)cc1 (stereo not drawn)
-16.8%	CC(C)C(=O)Nc1ccc(S(=O)(=O)N2CCC(c3nc4ccccc4[nH]3)CC2)cc1
2.3%	CCCC(CCC)C(=O)Nc1ccncc1
-12.2%	Cc1ccc(C)c(S(=O)(=O)N2CC(=O)N(CCc3ccccc3)C(=O)C2)c1
4.1%	CC(NC(=O)CSc1nc(-c2cccc(Cl)c2)nc2cc(=O)[nH]n12)c1nc2ccccc2n1C (stereo not drawn)
-6.5%	CC(=O)NCCSC(=O)c1ccc(F)cc1
26.0%	Fc1ccc(Nc2ncnc3sccc23)cc1
-6.7%	COc1ccc(CNC(=O)C(C#N)c2nc3ccccc3nc2N2CCN(C)CC2)cc1 (stereo not drawn)
3.3%	Cc1cc(NC(=O)CSCc2ccc([N+](=O)[O-])cc2)no1
-1.2%	CCC(C)[C@H]1CNC(=S)N1CCC12CC3CC(CC(C3)C1)C2 (stereo partly drawn)
1.2%	CN(C)c1ccc(C(CC(=O)O)C(=O)O)cc1 (stereo not drawn)
18.4%	Cc1cc(C)cc(Oc2ccc(C(F)(F)F)cc2C#N)c1
5.9%	O=c1cnc2cnc(N3CCOCC3)nc2n1CCc1ccccc1

Fetched one by one from above (6):
VDR inh	smiles
-6.5%	CC(=O)NCCSC(=O)c1ccc(F)cc1
3.3%	Cc1cc(NC(=O)CSCc2ccc([N+](=O)[O-])cc2)no1
-16.8%	CC(C)C(=O)Nc1ccc(S(=O)(=O)N2CCC(c3nc4ccccc4[nH]3)CC2)cc1
-6.7%	COc1ccc(CNC(=O)C(C#N)c2nc3ccccc3nc2N2CCN(C)CC2)cc1 (stereo not drawn)
18.4%	Cc1cc(C)cc(Oc2ccc(C(F)(F)F)cc2C#N)c1
-1.2%	CCC(C)[C@H]1CNC(=S)N1CCC12CC3CC(CC(C3)C1)C2 (stereo partly drawn)

(cont.)
VDR inh	smiles
-0.5%	CCc1cccc(C)c1NC(=O)C(c1ccccc1)N1CCC1=O (stereo not drawn)
-10.2%	Cc1nc(N2CCCCC2C)c2c(C)c(C(=O)Nc3ccccc3C(F)(F)F)sc2n1 (stereo not drawn)
15.0%	CCC(=O)Nc1nc2ccccc2n1CCN1CCOCC1
10.3%	COc1ccccc1OCC(=O)NCC1(N2CCOCC2)CCCCC1
-8.0%	CC(=O)c1ncnn1CC(=O)c1ccc(Cl)cc1Cl
?	FC(F)(F)c1ccc(CN2C[C@@H]3C(c4ccc(Cl)nc4)C4(c5cccnc5)CC3(C4)[C@H]2c2ccccc2)cc1 (stereo partly drawn)
2.2%	CN(C)CCN(Cc1cc2cc3c(cc2nc1Cl)OCO3)C(=O)c1ccco1
-6.8%	CN(C)CCN(C(=O)c1ccco1)c1nc2cc3c(cc2s1)OCCO3
8.2%	CCOc1cccc(CC(=O)N2CCc3c([nH]c4ccccc34)C2c2ccc(C)cc2)c1OCC (stereo not drawn)
-2.2%	COCCC(=O)N1CCC(Oc2ccc(C(=O)N3CCC[C@H]3CO)cc2)CC1
-9.9%	O=C1NC2(Nc3ccccc31)C(=O)Nc1ccccc12 (stereo not drawn)
-14.9%	O=C(c1ccco1)N1CCN(Cc2csc(-c3ccccc3Cl)n2)CC1
31.1%[activator]	O=C(COc1ccccc1)N1CCNC1=O
11.6%	CC(C)(C)c1ccc(OCC(=O)Nc2ccc(S(=O)(=O)Nc3ncccn3)cc2)cc1
-12.8%	Cc1ccc(Cn2c(=O)n(Cc3ccc(Cl)cc3)c(=O)c3cccnc32)cc1
?	C=CC(=O)N1C/C(=C/c2ccccc2)C(=O)/C(=C\c2ccccc2)C1
-6.5%	COCCNC(=O)C(c1ccc(OC)cc1)N(Cc1ccco1)C(=O)CCC(=O)Nc1ccccn1 (stereo not drawn)
-11.7%	COc1ccc(NC(=O)N2CCCC2C(=O)Nc2ccc(C)c(Cl)c2)cc1 (stereo not drawn)
-10.6%	COc1ccc(C(=O)NN=C2CCCC2)cc1OC
3.5%	C=CCn1c(SCC(=O)Nc2ccc(F)cc2F)nnc1-c1cnccn1
-2.8%	CCOC(=O)CN1CCC(c2ccccc2)CC1
2.7%	CC(C)(C)c1ccc(C(=O)Nc2nc3nc(-c4ccccc4)cc(=O)n3[nH]2)cc1
-14.7%	Fc1ccc(CNc2ccccn2)cc1
-4.5%&4.6%	O=C1OCCN1C(=O)[C@H]1[C@H](c2ccccc2)C(c2ccc(F)cc2)=NN1c1ccccc1
2.6%	CCCCc1oc2ccccc2c1C(=O)c1cc(I)c(N(CC)CCOCC)c(I)c1
-2.3%	Cc1cc(C)nc(N2CCC(C(=O)Nc3ccc4c(c3)CCC4)CC2)n1
4.4%	COc1cccc(CN2CCC(N(CCc3ccccc3)Cc3ccccc3)CC2)c1OC
8.7%	O=C(CCN1C(=O)c2ccccc2C1=O)Nc1cccc(S(=O)(=O)NC2=NCCC2)c1
-20.4%	NCCCN(Cc1ccc(Cl)cc1)c1ccc(Br)cn1
11.6%	CCc1ccc(C(C(=O)NCc2ccc(OC)cc2)N(CCOC)C(=O)Cc2cccs2)cc1 (stereo not drawn)
-10.2%	Cc1ccccc1-c1cccc([C@@H]2C[C@H]3[C@H](CON3C)CN2Cc2ccccc2)c1
-13.3%	Cn1cc(Cl)c(C(=O)OCC(=O)Nc2nc(-c3ccc(Br)cc3)cs2)n1
4.9%	COc1ccccc1C(=O)NC(=O)COC(=O)Cc1ccccc1[N+](=O)[O-]
8.1%	CC(=O)c1sc(NC(=O)c2ccc(COc3ccccc3Cl)o2)nc1C
8.7%	COc1ccc(OCC(=O)O/N=C(\N)Cc2ccc(Cl)cc2Cl)cc1
-9.8%	CC(C)(C)C(=O)N1CCn2c1nc1ccccc12
15.1%	CCOc1ccc(CC(=O)NNC(=O)/C=C/C(=O)O)cc1
2.7%	c1ccc2c(c1)OCC(c1csc3ncnc(N4CCCC4)c13)O2 (stereo not drawn)
-17.0%	COc1ccc(Cl)cc1NC(=O)CN(C)C(=O)c1cccc2cccnc12
-17.1%	COc1cc(/C=C/C(=O)OCC(=O)NC2CCS(=O)(=O)C2)ccc1O (stereo not drawn)
0.6%	Nc1ccc2c(c1Br)Cc1ccccc1-2
1.2%	CC(C)Cc1cc(C(=O)N2CCCC(CCC(=O)N(C)CCc3ccccn3)C2)no1 (stereo not drawn)
-9.1%	CC1CCN(CCCCOc2cccc(C(C)C)c2)CC1
-4.3%	O=C(CN1CCN(Cc2ccc(Cl)cc2)CC1)N/N=C/C=C/c1ccccc1[N+](=O)[O-]
1.0%	O=C(Nc1ccccc1)NC1CCN(Cc2c(F)cccc2Cl)CC1
-13.9%	COc1ccc(C(=O)Cc2nnc(C)s2)cc1
-11.5%	O=C(Nc1ccc2ccccc2c1)c1ccccc1F
7.0%	Cc1ccc(S(=O)(=O)N2CCN(C(=O)c3ccc(OCc4c(C)noc4C)cc3)CC2)cc1
10.7%	COc1cccc(NC(=O)CSC2=Nc3ccccc3C3=NC(CCC(=O)NCCc4ccccc4)C(=O)N23)c1 (stereo not drawn)
5.8%	CCn1c(SCC(=O)Nc2c(C)n(C)n(-c3ccccc3)c2=O)nc2c1c(=O)n(C)c(=O)n2C
-16.4%	Cc1ccc(C(=O)NCCNC(=O)c2ccc(C)nc2)cc1
-9.7%	COC(=O)c1c(Sc2ccccc2)c2ccccc2n1C
-0.1%&8.9%	CCc1ccc(NC(=O)CCS(=O)(=O)c2ccc3c(c2)CCN3C(C)=O)cc1
-3.9%	CCOC(=O)C1CCCN(/C=C2\SC(=S)N(CC)C2=O)C1 (stereo not drawn)

The list is partial; count on the stated rates, not on these rows.
